MLL AF4-AF9 inh = blocks AF4 peptide binding to human AF9; AlphaScreen, biotin-AF4 peptide binding to FLAG-AF9; inhibition, % at 10 µM; AID 651704; 350,000 compounds, 0.47% hits;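 active = every replicate reaching a set inhibition limit, whatever the replicate mean, cut at about 25% in these data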;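 note: 0% = plate neutral control median and 100% = total signal loss; the record names both 10 and 1 µM as test concentration; the first replicate is given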
Target sequence (P42568 whole entry, looked up): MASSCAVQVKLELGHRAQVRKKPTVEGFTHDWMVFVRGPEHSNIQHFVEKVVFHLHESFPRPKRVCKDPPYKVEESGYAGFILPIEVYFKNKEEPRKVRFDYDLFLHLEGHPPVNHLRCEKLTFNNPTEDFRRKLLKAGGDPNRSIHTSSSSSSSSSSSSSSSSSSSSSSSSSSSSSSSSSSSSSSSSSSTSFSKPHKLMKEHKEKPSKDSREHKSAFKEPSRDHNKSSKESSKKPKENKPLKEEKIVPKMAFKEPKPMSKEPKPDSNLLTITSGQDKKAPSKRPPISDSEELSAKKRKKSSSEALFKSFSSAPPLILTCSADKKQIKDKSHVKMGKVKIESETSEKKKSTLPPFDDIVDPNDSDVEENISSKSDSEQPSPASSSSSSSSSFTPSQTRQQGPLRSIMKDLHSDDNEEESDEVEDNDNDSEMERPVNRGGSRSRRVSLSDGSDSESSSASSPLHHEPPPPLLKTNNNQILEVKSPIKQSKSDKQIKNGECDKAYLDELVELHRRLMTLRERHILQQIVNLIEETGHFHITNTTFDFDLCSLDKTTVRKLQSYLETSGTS
FGF22 binding = FGF22 (human) thermal shift binding | calls only at 9.99 µM | recombinant FGF22 thermal shift, SYPRO orange fluorescence; percent of sucrose octasulfate shift, DMSO zero | AID 651658 | 340,000 compounds, 1.5% hits;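 active = melting point raised past a set limit in the mean and every replicate; three in four hits are not shown here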
Target sequence (Q9HCT0 whole entry, looked up): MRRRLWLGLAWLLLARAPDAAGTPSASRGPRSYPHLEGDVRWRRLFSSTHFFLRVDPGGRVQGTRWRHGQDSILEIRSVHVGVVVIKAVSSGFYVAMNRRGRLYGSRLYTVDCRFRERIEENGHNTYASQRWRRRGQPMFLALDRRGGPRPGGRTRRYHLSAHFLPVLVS
* = called active by the depositor; i = inactive; + = active, no number.

Each structure is followed by: MLL AF4-AF9 inh	FGF22 binding
C[C@@H]1CN([C@@H](C)CO)C(=O)c2cc(-c3ccccc3F)cnc2O[C@H]1CN(C)C
 : -8.1	i
CC(=O)n1cc([C@@H]2C=C(C(N)=O)O[C@H](OCCCCO)C2)c2ccccc21
 : -0.3	i
CO[C@@H]1CC[C@@H]2CCN(C)C(=O)[C@H](C)[C@H](OC)CN(C)C(=O)c3cccc(C#N)c3OC[C@@H]1O2
 : -3.2	i
C[C@H](CO)N1C[C@H](C)[C@@H](CN(C)C(=O)C2CCC2)Oc2ncc(C#Cc3ccccc3F)cc2C1=O
 : 3.1	i
COc1ccc(CCNC(=O)[C@@]2(Sc3ccc(C)cc3)CC(=O)N(C(C)C)[C@@H]2c2ccc(CO)cc2I)cc1
 : -12	+
COCC(=O)N1CC(=O)N2[C@@H](CO)[C@H](c3ccc(C#CCc4ccccc4)cc3)[C@@H]2C1
 : -0.5	i
O=C(C[C@H]1C[C@H]2c3cc(NC(=O)Nc4ccccc4F)ccc3O[C@H]2[C@@H](CO)O1)NCC1CC1
 : 0.1	i
COc1ccc(S(=O)(=O)N(C)C[C@H]2Oc3ccc(NC(=O)Cc4ccccc4)cc3C(=O)N([C@H](C)CO)C[C@H]2C)cc1
 : -2.0	i
CCS(=O)(=O)Nc1ccc2c(c1)C(=O)N(C)C[C@@H](OC)[C@H](C)CN(C(=O)c1ccc3c(c1)OCO3)[C@@H](C)CO2
 : 6.0	i
Cc1noc(C)c1S(=O)(=O)Nc1ccc2c(c1)C(=O)N([C@@H](C)CO)C[C@H](C)[C@H](CN(C)S(=O)(=O)c1cn(C)cn1)OCCCC[C@@H](C)O2
 : -2.5	i
Cc1ccc(-c2ccc3c(c2)O[C@@H](CN(C)C(=O)C2CC2)[C@H](C)CN([C@H](C)CO)S3(=O)=O)cc1
 : -1.6	i
COc1ccc(NC(=O)Nc2cccc3c2O[C@H](CN(C)C(=O)Nc2c(C)noc2C)[C@H](C)CN([C@@H](C)CO)C3=O)cc1
 : 1.3	i
CCCNC(=O)N1CC2(C1)CN(C(=O)NC1CCCC1)[C@H](CO)c1[nH]c3cc(OC)ccc3c12
 : 4.1	i
COc1ccccc1CNC(=O)C[C@@H]1C[C@H]2c3cc(NC(=O)C4CCOCC4)ccc3O[C@H]2[C@@H](CO)O1
 : -1.9	i
C[C@@H]1CCCCO[C@H](CN(C)S(=O)(=O)c2ccc(Cl)cc2)[C@@H](C)CN([C@@H](C)CO)C(=O)c2cc(NC(=O)CCCN(C)C)ccc2O1
 : 13	i
COc1ccc(C(=O)Nc2ccc3c(c2)C(=O)N(C)C[C@@H](OC)[C@@H](C)CN[C@H](C)CO3)cc1
 : -2.0	i
O=C(c1ccccn1)N1CC[C@@H]2[C@H](CO)Nc3ccc(-c4ccccc4F)cc3[C@@H]21
 : -1.9	i
C[C@@H]1CN([C@H](C)CO)S(=O)(=O)c2ccc(-c3cccc(C(=O)N(C)C)c3)cc2O[C@H]1CN(C)C
 : -2.2	i
C[C@H]1CCCCO[C@H](CN(C)Cc2ccncc2)[C@@H](C)CN([C@@H](C)CO)C(=O)c2cc(NC(=O)Cc3ccccc3)ccc2O1
 : -1.5	i
CNC[C@H]1OCCCC[C@@H](C)Oc2ccc(NS(=O)(=O)c3ccccc3)cc2C(=O)N([C@H](C)CO)C[C@H]1C
 : -1.1	i
C[C@@H](NC(=O)C[C@@H]1C=C[C@H](NC(=O)Cc2ccccn2)[C@@H](CO)O1)c1ccccc1
 : 0.4	i
COCC(=O)N1CC2(C1)[C@H](c1ccccc1)[C@@H](CO)N2C(=O)NC1CCCC1
 : -1.9	+
CCCNC(=O)C[C@H]1CC[C@H]2[C@@H](COC[C@H](O)CN2C(=O)C2CCOCC2)O1
 : -1.1	i
CCCC(=O)Nc1ccc2c(c1)OC[C@@H](C)N(C(=O)CC1CC1)C[C@@H](C)[C@@H](OC)CN(C)C2=O
 : 0.1	i
COc1cccc(C#Cc2ccc([C@@H]3[C@@H](C#N)N(C(=O)C4CC4)[C@H]3CO)cc2)c1
 : -0.5	i
COc1ccccc1NC(=O)N1CCCCN2[C@@H](CO)[C@@H](c3ccc(C#Cc4ccccc4)cc3)[C@@H]2C1
 : 12	i
C[C@@H]1CN([C@@H](C)CO)C(=O)c2cc(NC(=O)Cc3ccccc3)ccc2O[C@@H](C)CCCCO[C@H]1CN(C)S(=O)(=O)c1ccccc1
 : 0.2	i
CCC(=O)Nc1ccc2c(c1)C(=O)N(C)[C@H]1CC[C@@H](CC(=O)NCCc3ccncc3)O[C@H]1CO2
 : -0.6	i
C[C@@H]1CN([C@@H](C)CO)C(=O)c2cc(NC(=O)NC3CCCCC3)ccc2O[C@@H]1CN(C)C(=O)NC1CCCCC1
 : -1.5	i
O=C(C1CCCCC1)N1C[C@@H]2[C@H](c3ccccc31)[C@H](CO)N2C(=O)c1ccccc1
 : -0.1	i
C[C@@H]1CN([C@H](C)CO)C(=O)Cc2cc(NC(=O)CCN3CCOCC3)ccc2O[C@@H]1CN(C)Cc1ccc(Cl)c(Cl)c1
 : 3.2	i
C[C@H](O)C#Cc1ccc2c(c1)O[C@@H](CN(C)Cc1cncnc1)[C@@H](C)CN([C@@H](C)CO)S2(=O)=O
 : -0.2	i
C[C@@H]1CCCCO[C@@H](CN(C)C(=O)c2ccncc2)[C@H](C)CN([C@@H](C)CO)C(=O)c2cc(NS(=O)(=O)c3cccs3)ccc2O1
 : -1.7	i
C[C@@H]1CN([C@H](C)CO)C(=O)CCCn2cc(nn2)CO[C@@H]1CN(C)S(=O)(=O)c1cccs1
 : 0.9	i
C[C@@H]1CN([C@@H](C)CO)C(=O)c2cc(C#Cc3ccncc3)cnc2O[C@H]1CN(C)CC1CCOCC1
 : -7.4	i
CCC(=O)N(C)C[C@H]1Oc2cc(C#Cc3cccnc3)ccc2S(=O)(=O)N([C@H](C)CO)C[C@H]1C
 : -11	i
COc1ccc(S(=O)(=O)Nc2cccc3c2O[C@H](CN(C)Cc2ccc4c(c2)OCO4)[C@@H](C)CN([C@H](C)CO)C3=O)cc1
 : -0.2	i
COc1ccc(NC(=O)Nc2cccc3c2O[C@H](CN(C)Cc2ccc4c(c2)OCO4)[C@H](C)CN([C@H](C)CO)C3=O)cc1
 : 1.7	i
C[C@@H]1CN([C@@H](C)CO)C(=O)c2cc(C#Cc3ccccc3F)cnc2O[C@H]1CN(C)C(=O)C1CCCCC1
 : 3.6	i
O=C(C[C@@H]1CC[C@H]2[C@@H](COC[C@@H](O)CN2S(=O)(=O)c2ccccc2)O1)N1CCc2ccccc2C1
 : 0.4	i
Cc1cccc(-c2ccc([C@H]3[C@@H](CO)N4CCCCN(C(=O)c5ccc6c(c5)OCO6)C[C@H]34)cc2)c1
 : 19	i
O=C(c1cccc(F)c1)N1CCCCN2[C@H](C1)[C@H](c1ccc(-c3ccccc3)cc1)[C@@H]2CO
 : -4.1	i
CC=Cc1ccc2n(c1=O)C[C@@H]1[C@@H](CO)[C@H](C(=O)NC3CCC3)N(S(C)(=O)=O)[C@H]21 (mixture of isomers)
 : 0.2	i
CO[C@H]1CN(C)C(=O)c2cc(NC(=O)Nc3ccccc3F)ccc2OC[C@H](C)N(C(C)=O)C[C@@H]1C
 : 2.0	i
C[C@@H]1CCCCO[C@H](CN(C)Cc2ccncc2)[C@H](C)CN([C@H](C)CO)C(=O)c2cc(NC(=O)Nc3cccc4ccccc34)ccc2O1
 : 1.4	i
C[C@H](CO)N1C[C@H](C)[C@@H](CN(C)Cc2ccccc2)Oc2c(NS(=O)(=O)c3ccc(Cl)cc3)cccc2C1=O
 : 0.1	i
CCC(=O)N(C)C[C@H]1Oc2ncc(C#CCc3ccccc3)cc2C(=O)N([C@@H](C)CO)C[C@@H]1C
 : -3.3	i
C[C@@H]1CN([C@H](C)CO)C(=O)c2cc(C#CC3CC3)cnc2O[C@H]1CN(C)C(=O)c1ccccc1
 : 1.4	i
C/C=C/c1ccc2c(c1)O[C@@H](CN(C)C(=O)Nc1ccccc1)[C@@H](C)CN([C@@H](C)CO)S2(=O)=O
 : 2.2	i
CC12N=C3SCc4ccccc4CN3[C@H](c3ccccc3O1)[C@H]2CO[Si](C)(C)C(C)(C)C
 : 2.2	i
COc1ccc2c3c(n(C)c2c1)[C@@H](CO)N(C(=O)c1ccccc1)CC31CN(C)C1
 : 8.6	i
C[C@@H]1CCCCO[C@H](CN(C)C(=O)c2ccncc2)[C@@H](C)CN([C@H](C)CO)C(=O)c2cc(NC(=O)c3ccccc3)ccc2O1
 : -7.7	i
CN(C)CC#Cc1ccc([C@@H]2[C@@H](CO)N3CCCCN(C(=O)NC4CCCC4)C[C@H]23)cc1
 : 3.7	i
O=C(CN1CCOCC1)N1[C@H](CO)[C@H]2c3ccccc3NC[C@H]21
 : -1.6	i
COc1ccc(NC(=O)Nc2ccc3c(c2)C(=O)N([C@H](C)CO)C[C@@H](C)[C@@H](CN(C)C(=O)NC(C)C)O3)cc1
 : 1.0	i
C[C@H]1CCCCO[C@@H](CN(C)C)[C@@H](C)CN([C@@H](C)CO)C(=O)c2cc(N(C)C)ccc2O1
 : -2.2	i
Cc1noc(C)c1S(=O)(=O)Nc1ccc2c(c1)C(=O)N([C@@H](C)CO)C[C@H](C)[C@H](CN(C)S(=O)(=O)c1cn(C)cn1)OCCCC[C@H](C)O2
 : -3.5	i
CNC[C@@H]1OCCCC[C@H](C)Oc2ccc(NS(=O)(=O)c3ccc(F)cc3)cc2C(=O)N([C@@H](C)CO)C[C@@H]1C
 : -2.6	i
CO[C@@H]1CN(C)C(=O)c2ccc(NC(=O)C3CCOCC3)cc2OC[C@H](C)N(C(C)=O)C[C@@H]1C
 : -1.9	i
CC(C)(C)[S@@](=O)N1Cc2cc(C(=O)N[C@@H]3CCN(Cc4ccccc4)C3)nc(-c3cccc(-c4ccncc4)c3)c2[C@H]1CCO
 : 5.2	i

Of the compounds above, 2 have a tert-butyl group.
Each structure is followed by: MLL AF4-AF9 inh	FGF22 binding
CC12N=C3SCc4ccccc4CN3[C@H](c3ccccc3O1)[C@H]2CO[Si](C)(C)C(C)(C)C
 : 2.2	i
CC(C)(C)[S@@](=O)N1Cc2cc(C(=O)N[C@@H]3CCN(Cc4ccccc4)C3)nc(-c3cccc(-c4ccncc4)c3)c2[C@H]1CCO
 : 5.2	i

(cont.)
Each structure is followed by: MLL AF4-AF9 inh	FGF22 binding
COc1ccc(CN(C)C[C@@H]2OCCCC[C@@H](C)Oc3ccc(NC(=O)NC(C)C)cc3C(=O)N([C@@H](C)CO)C[C@H]2C)cc1
 : 0.8	i
COc1ccc2c3c([nH]c2c1)[C@@H](CO)N(Cc1nccs1)CC31CN(Cc2ccncc2)C1
 : 7.4	i
Cc1ccc(S(=O)(=O)Nc2ccc3c(c2)C(=O)N([C@H](C)CO)C[C@H](C)[C@H](CN(C)CC2CC2)OCCCC[C@@H](C)O3)cc1
 : -7.0	i
C[C@H](CO)N1C[C@H](C)[C@@H](CN(C)C(=O)Nc2ccc3c(c2)OCO3)OCCCC[C@H](C)Oc2ccc(NC(=O)Nc3ccccc3)cc2C1=O
 : 0.5	i
C[C@H](CO)N1C[C@H](C)[C@@H](CN(C)C(=O)Nc2ccc(F)cc2)Oc2ccc(NC(=O)CCN3CCOCC3)cc2C1=O
 : -0.6	i
CO[C@@H]1CN(C)C(=O)c2ccc(NC(=O)c3cccc(F)c3)cc2OC[C@@H](C)N(C)C[C@H]1C
 : -4.0	i
COc1cccc(S(=O)(=O)N[C@H]2C=C[C@@H](CC(=O)NCc3ccccc3)O[C@@H]2CO)c1
 : -1.0	i
C[C@H]1CN([C@@H](C)CO)C(=O)c2cc(NC(=O)Cn3cnnn3)ccc2O[C@H]1CN(C)C(=O)Nc1ccc(C(F)(F)F)cc1
 : -2.1	i
COc1ccc(S(=O)(=O)Nc2ccc3c(c2)CC(=O)N([C@@H](C)CO)C[C@@H](C)[C@H](CN(C)Cc2ccc4c(c2)OCO4)O3)cc1
 : 11	i
CO[C@@H]1CN(C)C(=O)c2cc(NS(=O)(=O)c3ccc(F)cc3)ccc2OC[C@H](C)NC[C@H]1C
 : -2.8	i
CCC(=O)N1[C@H](CO)[C@H](c2ccc(-c3ccccc3)cc2)[C@H]1CN(CC)C(C)=O
 : 1.0	i
C[C@@H]1CN([C@H](C)CO)C(=O)c2cc(NC(=O)Cc3cn(C)c4ccccc34)ccc2O[C@H]1CN(C)Cc1ccc2c(c1)OCO2
 : 7.9	i
C[C@H](CO)N1C[C@H](C)[C@H](CN(C)C)Oc2c(NC(=O)CCCCCC(=O)Nc3ccccc3N)cccc2C1=O
 : 0.9	i
COc1ccc(CN(C)C[C@H]2Oc3c(NC(=O)Nc4c(C)noc4C)cccc3C(=O)N([C@@H](C)CO)C[C@@H]2C)cc1
 : 0.2	i
COc1ccccc1CNC(=O)C[C@@H]1CC[C@@H]2[C@H](COc3ccc(NC(=O)Nc4ccc(F)c(F)c4)cc3C(=O)N2C)O1
 : -0.9	i
O=C(C[C@@H]1CC[C@H]2[C@@H](COC[C@H](O)CN2S(=O)(=O)c2ccccc2F)O1)NCc1ccccc1Cl
 : 1.7	i

Ordered by value in MLL AF4-AF9 inh (largest number first): 6 from the list above.
mol | MLL AF4-AF9 inh
COc1ccc(S(=O)(=O)Nc2ccc3c(c2)CC(=O)N([C@@H](C)CO)C[C@@H](C)[C@H](CN(C)Cc2ccc4c(c2)OCO4)O3)cc1 | 11
C[C@@H]1CN([C@H](C)CO)C(=O)c2cc(NC(=O)Cc3cn(C)c4ccccc34)ccc2O[C@H]1CN(C)Cc1ccc2c(c1)OCO2 | 7.9
COc1ccc2c3c([nH]c2c1)[C@@H](CO)N(Cc1nccs1)CC31CN(Cc2ccncc2)C1 | 7.4
O=C(C[C@@H]1CC[C@H]2[C@@H](COC[C@H](O)CN2S(=O)(=O)c2ccccc2F)O1)NCc1ccccc1Cl | 1.7
C[C@H](CO)N1C[C@H](C)[C@@H](CN(C)C(=O)Nc2ccc3c(c2)OCO3)OCCCC[C@H](C)Oc2ccc(NC(=O)Nc3ccccc3)cc2C1=O | 0.5
Cc1ccc(S(=O)(=O)Nc2ccc3c(c2)C(=O)N([C@H](C)CO)C[C@H](C)[C@H](CN(C)CC2CC2)OCCCC[C@@H](C)O3)cc1 | -7.0

This is a subset (hit frequency here may not be typical).
